Assay outcomes deposited in PubChem BioAssay by National Center for Advancing Translational Sciences (NCATS).
VDR inh: blocks the human vitamin D receptor. P11473. Potency, µM, without a hit: max response, negative = inhibition, actives largely listed as inhibitors. hit rate 0.93% among 400,000. VDR-SRC2-3 peptide fluorescence polarization, 2 h; active = well fitted inhibition curve with a large enough effect; inconclusive = small, poorly fitted or top-dose-only effect, or another doubt; inactive = no such curve, though single readings can be large or run the other way; note: series mostly up to about 120 µM
Target sequence (P11473 whole entry, looked up): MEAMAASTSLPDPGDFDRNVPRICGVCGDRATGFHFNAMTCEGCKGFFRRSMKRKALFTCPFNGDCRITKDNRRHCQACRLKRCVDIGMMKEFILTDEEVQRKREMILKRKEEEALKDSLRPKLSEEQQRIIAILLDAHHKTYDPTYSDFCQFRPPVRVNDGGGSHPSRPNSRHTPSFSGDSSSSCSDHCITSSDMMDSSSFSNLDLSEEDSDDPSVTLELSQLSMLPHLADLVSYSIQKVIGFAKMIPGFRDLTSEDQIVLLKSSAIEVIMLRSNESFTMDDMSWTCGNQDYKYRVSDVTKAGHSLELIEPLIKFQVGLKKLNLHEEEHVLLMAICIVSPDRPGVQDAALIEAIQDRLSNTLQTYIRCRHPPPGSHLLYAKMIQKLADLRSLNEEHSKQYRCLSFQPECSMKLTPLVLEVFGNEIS
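Two reagent solutions held at 4 deg C in the dark were dispensed, compounds pinned at 23 nl, and the mixture incubated 2 h at room temperature. Read-out: fluorescence polarization of VDR–SRC2-3 peptide binding.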
* = called active by the depositor; ? = inconclusive; & = joins results of further samples. % is set by controls: 0 for no effect and ±100 for the full control effect; potency is the fitted concentration of half-maximal effect. The list is partial; the hit share may differ from the screen's.

| SMILES | VDR inh |
| --- | --- |
| Cc1ccc(OCC(=O)c2c(O)c3ccccc3oc2=O)cc1C | 4.0% |
| CC(C)(C)OC(=O)N1CCC(c2c(C(=O)NCc3ccc4c(c3)OCO4)cnn2-c2ccc(F)cc2F)CC1 | 4.8% |
| COc1ccc(NC(=O)C(C)N2CCN(C)CC2)cc1 (centres undefined) | -1.4% |
| CCN[C@@H]1C[C@H](N)[C@H](O[C@H]2OC(CN)=CC[C@H]2N)[C@@H](O)[C@H]1O[C@H]1OC[C@@](C)(O)[C@@H](NC)[C@@H]1O | 2.0% |
| CCOC(=O)C1=C(C)NC2=C(C1c1ccc([N+](=O)[O-])cc1)S(=O)(=O)c1ccccc12 (centres undefined) | -19.1% |
| O=C(CSc1nnc(COc2ccccc2)n1Cc1ccco1)c1ccc(F)cc1 | -9.0% |
| COc1ccc(S(=O)(=O)NC2CC(C)(C)NC(C)(C)C2)cc1 | -1.0% |
| CC(C)CNC(=O)COC(=O)c1ccccc1OCC(=O)Nc1ccc(Br)cc1 | 11.3% |
| O=C(c1ccc(Br)o1)N(Cc1ccccc1)Cc1ccccc1 | ? |
| c1ccc(C2=Nn3c(nnc3-c3cc(-c4ccccc4)n[nH]3)SC2)cc1 | -2.6% |
| Cc1ccc(OC(C)C(=O)O)cc1C (centres undefined) | 16.3% |
| CS(=O)(=O)c1ccc(C(=O)NCC2(N3CCOCC3)CCCCC2)cc1 | -10.0% |
| O=C(NCCN1CCOCC1)c1ccncc1 | 3.7% |
| Cn1c(Sc2ccc([N+](=O)[O-])cc2C(F)(F)F)nnc1-c1ccccc1 | -4.6% |
| O=C(CCCc1cccs1)Nc1nc(-c2ccc(F)cc2)cs1 | -3.2% |
| CCN(C(=O)COC(=O)/C=C/c1ccc(F)cc1)C1CCCCC1 | -9.0% |
| COC(=O)c1ccc(NC(=O)C(=O)NCCc2csc(-c3ccc(C(F)(F)F)cc3)n2)cc1 | 8.2% |
| O=C(O)c1cn(-c2ccccc2)nc1-c1ccc(F)cc1 | 17.6% |
| CCOC(=O)C1=C(CNCc2ccccc2)NC(=O)NC1c1ccc(C)cc1 (centres undefined) | -12.6% |
| Cc1nc2ccccc2c2oc(C(=O)Nc3ccc(C(C)C)cc3)cc12 | 8.4% |
| COc1ccc(C(=O)N2CCCCC2CCN2CCCCC2)cc1 (centres undefined) | 13.9% |
| Cc1cc(C)c(C(N)=O)c(Nc2cccc(Cl)c2)n1 | -16.3% |
| Cc1ccc(NC(=O)Cn2ccc(=O)[nH]c2=O)cc1 | -6.1% |
| Cc1ccc(C(=O)NC(C)c2ccc(-n3ccnc3)cc2)cc1 (centres undefined) | 17.6% |
| Cc1ccc(C)n1-c1ccc(C(=O)N2CCC(C(N)=O)CC2)cc1 | -14.0% |
| COc1ccccc1S(=O)(=O)Nc1ccc(S(=O)(=O)Nc2nccs2)cc1 | 4.8% |
| O=C(COc1ccc(/C=N/NC(=O)c2cc3ccccc3o2)cc1Cl)Nc1ccccc1 | -8.1% |
| CC(C)CCn1nnc2sc(-c3ccccc3)cc2c1=O | 4.9% |
| COc1ccc(S(N)(=O)=O)cc1C(=O)NCC1(N2CCCCC2)CCCCC1 | 0.9% |
| COc1ccc2c(c1)OC[C@H]1[C@H]2N2C(=O)CN(Cc3ccc(Cl)cc3)C(=O)[C@@]2(C)[C@H]1c1ccccc1 | 14.4% |

Next results:
| SMILES | VDR inh |
| --- | --- |
| O=C(O)c1ccc([N+](=O)[O-])c(CS(=O)(=O)c2ccccc2)c1 | -4.5% |
| COC(=O)C1C[C@@H]2C3=C(C(=O)[C@@](C)(NC(=O)c4ccccc4)C3[C@H](C(=O)OC)C1)[C@H](C)n1c(=O)n(-c3ccccc3)c(=O)n12 (some centres undefined) | -13.3% |
| Cc1ccc2cc3cc(C(=O)NCCCN4CCCCCC4)oc3nc2c1 | -20.7% |
| O=c1[nH]nc(N/N=C/c2ccc(Cl)cc2Cl)c(=O)[nH]1 | ? |
| CC1(C)CC(=O)C(C(C2=C(O)CC(C)(C)CC2=O)c2ccc(O)c([N+](=O)[O-])c2)=C(O)C1 | 79.4µM* |
| O=C(NCc1cccnc1)Nc1ccccc1C(F)(F)F | -4.3% |
| COc1cc2c(cc1OC)C(c1ccccc1[N+](=O)[O-])N(C(C)=O)CC2 (centres undefined) | -10.8% |
| COC(=O)C(C)Sc1nc2c(c(-c3ccc(OC)cc3)c1C#N)-c1ccccc1C2=O (centres undefined) | -9.7% |
| CC(C)C(c1nnnn1C1CCCC1)N1CCCCC1 (centres undefined) | -0.8% |
| COc1ccc(-c2nnc(SCc3cccnc3)o2)cc1 | -9.1% |
| COc1ccc(C(=O)COC(=O)C(CCSC)NC(=O)COc2ccccc2)c(OC)c1 (centres undefined) | -0.5% |
| COc1ccc(Cn2c(=S)[nH]c3cc(C(=O)N4CCCCC4)ccc3c2=O)cc1 | -0.7% |
| O=C(NC1CCCC1)c1cnn2c(C(F)(F)F)cc(-c3ccco3)nc12 | -3.9% |
| COc1ccc(N(C)C(=O)c2cn(CC(C)C)c(=O)c3cc(OC)c(OC)cc23)c(OC)c1 | 7.3% |
| O=C(CCN1C(=O)/C(=C/c2ccccc2Cl)SC1=S)NC1=NCCS1 | -3.8% |
| Clc1ccc2c(N/N=C/c3cccc(Br)c3)ccnc2c1 | 9.6% |
| C/C(=N\NC(=O)C(N)=O)c1cccc([N+](=O)[O-])c1 | 26.8% |
| COc1ccccc1NC(=O)Cn1nc(-c2ccc3c(c2)OCCO3)ccc1=O | -9.1% |
| N=c1c2c(ncn1Cc1ccco1)Oc1c(ccc3ccccc13)C2c1ccccc1 (centres undefined) | 15.4% |
| Cc1ccc(F)c(NC(=O)/C(C#N)=C(\O)c2ccc(C(C)(C)C)cc2)c1 | ? |
| CCCCN(CC)CCNC(=O)CCn1cnc2onc(-c3ccc(F)cc3)c2c1=O | 11.6% |
| COCCn1c(CN2CCc3ccccc3C2)nc2c1c(=O)n(C)c(=O)n2C | -6.7% |
| COc1ccc(NC(=O)CSc2nc(-c3ccc(OC)cc3)cc(=O)[nH]2)cc1 | -0.1% |
| CCc1ccc(C(=O)Nn2cnc3ccccc3c2=O)cc1 | -10.3% |
| CC(C)(C)OC(=O)NCCC(=O)Oc1ccc2ccc(=O)oc2c1 | -5.1% |
| CCCCN(CC)CCNC(=O)c1cc2c(=O)oc3ccc(C)cc3c2s1 | -7.6% |
| Cc1nc(SCC(=O)Nc2cccc(Cl)c2)n[nH]1 | -10.0% |
| O=C(CCN1C(=O)[C@@H]2Cc3ccccc3CN2C1=O)N[C@H](Cc1ccccc1)C(=O)O | 7.1% |
| Cc1ccc[n+](-c2nc([O-])sc2C=O)c1 | 6.5% |
| CCN(CC)C(=O)Oc1nnc(SC(C)C)n1-c1ccc(Cl)c(Cl)c1 | 9.0% |

Later entries
| SMILES | VDR inh |
| --- | --- |
| O=C(NCC1CCCO1)c1cccc2c1C(=O)c1ccc(N3CCC(Cc4ccccc4)CC3)cc1S2(=O)=O (centres undefined) | -5.5% |
| CCCn1c(N)c(C(=O)COC(=O)CNC(=O)c2ccc(C)c(C)c2)c(=O)n(C)c1=O | -13.0% |
| O=C1c2ccccc2CSc2c(O)cccc21 | -1.8% |
| OCCC1CN(Cc2ccccc2O)CCN1CCCc1ccccc1 (centres undefined) | 0.2% |
| CC1CCN(c2nc3ccc(C(=O)NCCc4ccc(S(N)(=O)=O)cc4)cc3s2)CC1 | -8.7% |
| O=C(Nc1ccccc1F)C1CC1c1ccccc1 (centres undefined) | -5.1% |
| O=C(Cn1c(=O)n(-c2ccccc2Cl)c(=O)c2sc3ccccc3c21)NC1CCCC1 | 7.2% |
| Cc1nc(CC(=O)Nc2cc(Cl)ccc2C)cs1 | -12.0% |
| CC(C)(C)c1ccc(C(=O)NCC(c2ccco2)S(=O)(=O)c2ccccc2)cc1 (centres undefined) | 16.0% |
| COc1ccc(-n2cc(-c3ccccc3)[nH]c2=S)c(OC)c1 | 5.1% |
| Cn1cc(CN2CCc3c([nH]c4ccccc34)C2C(C)(C)C)cn1 (centres undefined) | 3.2% |
| O=C(Nc1cccc2ncccc12)C(Cl)(Cl)Cl | 6.8% |
| CC(=O)Nc1ccc(CCNC(=O)c2ccc3ccccc3c2O)cc1 | -1.9% |
| Cc1ccccc1Nc1n[nH]c(C)c1[N+](=O)[O-] | -8.3% |
| Cc1ccc(S(=O)(=O)N(C)c2ccc(OCC(=O)N3CCCC(C(F)(F)F)C3)cc2)cc1 (centres undefined) | -9.7% |
| CC1CC=C2C(C#N)=C(N)C(C#N)(C#N)C(c3cccs3)C2C1 (centres undefined) | ? |
| O=C(CN1CCOCC1)Nc1c(C(=O)C2CC2)oc2ccccc12 | 7.7% |
| CCOC(=O)c1ccc(S(=O)(=O)n2c(CN3CCCCC3)nc3ccccc32)cc1 | -0.6% |
| N#Cc1ccc(CN2CCC3(CC2)CCN(C(=O)c2ccco2)CC3)cc1 | 2.2% |
| CC(=O)N(NC(N)=O)C(C)CC(=O)C1C(C)C=CCC1(C)C (centres undefined) | -16.7% |
| Cc1cc(C)c(OCC(O)CNC(C)(C)C)c(C)c1 (centres undefined) | -22.6% |
| CC1CC(C)CN(C(=O)CSC2=Nc3ccccc3C3=NC(Cc4c[nH]c5ccccc45)C(=O)N23)C1 (centres undefined) | -2.2% |
| COc1ccc(C(=O)NCCc2sc(-c3ccc(Cl)cc3)nc2C)c(OC)c1 | 4.8% |
| CCOC(=O)c1ccc(Nc2cc(C)nc(-c3ccccc3)n2)cc1 | -1.9% |
| CC1CN(S(=O)(=O)c2ccccc2)CN1C(=O)N1CCOCC1 (centres undefined) | 0.0% |
| COc1cc(NC(=O)c2c(F)cccc2F)c(Cl)cc1Cl | -3.9% |
| Cc1ccnc2c1NC(=O)c1cccnc1N2C1CC1 | -6.7%&-3.2% |
| C=C(C)c1cccc(C(C)(C)NC(=O)Nc2ccc(C(N)=O)cc2)c1 | -7.3% |
| COc1ccc(C)cc1NS(=O)(=O)c1ccc(NS(=O)(=O)c2ccc(NC(C)=O)cc2)cc1 | -4.4% |
| N#CCC(=O)N1CCN(Cc2ccc3c(c2)OCO3)CC1 | 7.9% |

More structures follow.
| SMILES | VDR inh |
| --- | --- |
| CCOc1ccccc1-c1cc(C(=O)N2CCOCC2)c2ccccc2n1 | -17.6% |
| CC(C)CCNCC1OCc2ccccc2CO1 | 10.7% |
| Cc1ccccc1C(=O)c1cccn1CC(=O)NCc1ccc(F)cc1 | -5.5% |
| CC(=O)Nc1c(Cl)c(Cl)c2c(c1Cl)Cc1cc(Cl)ccc1-2 | -3.2% |
| CCc1c(C)sc(NC(=O)CN2CCN(C(=O)c3ccco3)CC2)c1C(=O)OC | 5.4% |
| COc1cc(C(=O)NNC(=O)/C=C/c2ccco2)cc(OC)c1OC | 7.1% |
| CCCc1nc2c(C)ccc(C)c2c(N)c1CC | 4.2% |
| CCc1ccccc1NC(=O)c1cc(S(=O)(=O)N2CCCc3ccccc32)ccc1F | 2.5% |
| O=C(CSc1nnc(-c2cnccn2)n1Cc1ccco1)c1ccc(Cl)cc1 | ? |
| COc1ccc(-n2nnnc2SCC(=O)NC2CCCC2)cc1OC | 3.7% |
| CCOc1ccccc1NC(=S)N1CCN(c2ccc(OC)cc2)CC1 | -4.7% |
| CCOc1ccc(-c2nnc(SCC(=O)NC(C)CC)nc2-c2ccc(OCC)c(OC)c2)cc1OC (centres undefined) | 18.5% |
| CCn1nc(C)c(C(=O)Nc2cc(Oc3cc(C)cc(C)c3)cc([N+](=O)[O-])c2)c1C | -6.7% |
| CS(=O)(=O)N1N=C(c2cccs2)CC1c1ccc(Cl)o1 (centres undefined) | -11.1% |
| CCn1cc([N+](=O)[O-])c(C(=O)N2CCOCC2)n1 | -3.2% |
| COc1ccc(Cl)cc1NC(=O)CN1CCN(S(=O)(=O)N2CCC(C)CC2)CC1 | 18.3% |
| COc1ccc(N2C(=O)C3CC=C(Cl)CC3C2=O)cc1 (centres undefined) | 0.7% |
| Nc1ccc(S(=O)(=O)c2ccc(NC(=O)c3cccnc3)cc2)cc1 | 15.9% |
| CCOC(=O)c1cc(NCc2cccs2)ccc1N1CCOCC1 | -8.1% |
| Cc1nc2cc(Cl)ccc2c(=O)n1Cc1ccncc1 | 2.6% |
| C=CCn1c(SCC(=O)Nc2cc3oc4ccccc4c3cc2OC)nnc1-c1cnccn1 | -1.9% |
| CCc1ccc(N(C(=O)c2csnn2)C(C(=O)NC2CCCCC2)c2ccncc2)cc1 (centres undefined) | -13.2% |
| Cc1ccccc1NC(=O)CN1C(=O)S/C(=C\c2ccc(-c3cccc(C(=O)O)c3C)o2)C1=O | 15.4% |
| CCN(CC)C(=O)Cn1cnc2sc(C(=O)NCCCN3CCOCC3)c(C)c2c1=O | 24.7% |
| Cn1c(=O)n(C)c2cc(NS(=O)(=O)c3ccc(C(C)(C)C)cc3)c(NCc3ccccc3)cc21 | -8.8% |
| CCN(CC)C(=O)c1cc(-c2ccccc2OC)on1 | 12.2% |
| O=S(=O)(c1cccs1)N1CCCc2cccc(O)c21 | 0.9% |
| COc1ccc(NC(=O)c2ccc3nc(C(C)C)oc3c2)cc1OC | 7.0% |

Ordered by value in VDR inh (low to high): some entries from above
Structure	VDR inh
COc1ccc(C)cc1NS(=O)(=O)c1ccc(NS(=O)(=O)c2ccc(NC(C)=O)cc2)cc1	-4.4%
CC(=O)Nc1ccc(CCNC(=O)c2ccc3ccccc3c2O)cc1	-1.9%
COc1ccc(S(=O)(=O)NC2CC(C)(C)NC(C)(C)C2)cc1	-1.0%
COc1ccc(-n2nnnc2SCC(=O)NC2CCCC2)cc1OC	3.7%
COc1ccccc1S(=O)(=O)Nc1ccc(S(=O)(=O)Nc2nccs2)cc1	4.8%
Cc1ccc[n+](-c2nc([O-])sc2C=O)c1	6.5%
O=C(Nc1cccc2ncccc12)C(Cl)(Cl)Cl	6.8%
